E coli growth: blocks Escherichia coli growth; OD600 absorbance (concentration not given with the values); actives 0.21% (n = 330,000); OD600, 23 h; stronger effect = lower value; AID 1053175;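 active = OD600 absorbance below the run mean of sample wells minus 3.6 SD, in any replicate, cut at about 0.56 in these data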;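 also: stock transfer was 300 nL into about 60 µL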
* = called active by the depositor; & = joins results of further samples.

SMILES	E coli growth
C=C(C)C(=O)Nc1cccc(C2=NOC3(C2)CC(C(N)=O)N(C(=O)c2cc([N+](=O)[O-])cc([N+](=O)[O-])c2)C3)c1 (stereo unspecified)	0.7
COC(=O)C1=C(C)N(Cc2ccccc2)C(=O)NC1c1cccc(F)c1 (stereo unspecified)	0.71
C=C1CC2C3C=C(C)C4=CC(=O)CC[C@]4(C)C3CC[C@]2(C)[C@@]1(OC(C)=O)C(C)=O (stereo partly specified)	0.7
NC(=O)C1CC2(CC(c3cccc(NC(=O)COc4ccc(Cl)cc4)c3)=NO2)CN1C(=O)c1ccccc1 (stereo unspecified)	0.66
CCOC(=O)C1=CCC(c2ccccc2Cl)N(S(=O)(=O)c2ccc(C)cc2)C1C(=O)OCC (stereo unspecified)	0.67
C[C@@]12CCC=CC1C(c1ccc3ccccc3c1Br)N(Cc1ccccc1)C2=O (stereo partly specified)	0.7
CC1CN(C(C)CO)C(=O)c2cccc(NC(=O)Cc3ccccc3)c2OC1CN(C)Cc1ccc2c(c1)OCO2 (stereo unspecified)	0.71
NC(=O)C1=CC(c2ccc(C(F)(F)F)cc2)CC(OCCCCO)O1 (stereo unspecified)	0.68&0.67
O=c1c2ccccc2nc(C=Cc2cccc([N+](=O)[O-])c2)n1CCO	0.73
O=C(C1=CC(c2ccc3c(c2)OCO3)CC(OCCCCO)O1)N1CCOCC1 (stereo unspecified)	0.63
CC1COC(=O)C(CC(=O)OC(C)(C)C)CC=CCC(CC(=O)NC(CO)Cc2ccccc2)C(=O)N1 (stereo unspecified)	0.68&0.72&0.71&0.71&0.69
CCC1=C(OC(=O)N(CC)CC)N2C(=O)OC(=NCCc3c[nH]c4ccccc34)[C@]2(C)C2C1=CCC1C(=O)NC(=O)C12 (stereo partly specified)	0.7
CC=C(C)C(=O)NCCN1C2=NCC(Cc3ccc(O)cc3)N2CC1Cc1ccc(O)cc1 (stereo unspecified)	0.66
CCOC(=O)C1C2COc3ccc(Br)cc3C2N2C(=O)N(c3ccc(OC)cc3)C(=O)[C@@]12C (stereo partly specified)	0.7
COc1ccc(C2C(=C(O)c3ccccc3)C(=O)C(=O)N2C)cc1 (stereo unspecified)	0.71
Cc1ccc(C(=O)NC(=Cc2cccs2)C(=O)NCc2ccco2)cc1	0.68
C#CCOCCOCCOCCNc1nc(N2CCOCC2)nc(N2CCN(C(=O)C(C(C)CC)n3cc(CCCCN)nn3)CC2)n1 (stereo unspecified)	0.71
C#CCOCCOCCOCCNc1nc(N2CCOCC2)nc(N2CCN(C(=O)C(CC(N)=O)n3cc(C(N)C(C)C)nn3)CC2)n1 (stereo unspecified)	0.67
Fc1cccc(CCN2CCNCC2Cc2cccc3ccccc23)c1 (stereo unspecified)	0.64
C=CCC(CC(=O)N(CCO)Cc1ccccc1)C(=O)NC(COC(=O)C(CC=C)Cc1ccc(F)cc1)C(C)(C)C (stereo unspecified)	0.68&0.73
COC(=O)C1C[C@@]2(O)C(O)C(O)C(O)CC2N1Cc1ccc(C(F)(F)F)cc1 (stereo partly specified)	0.68&0.67
COc1cc(C=C(NC(=O)c2ccccc2Cl)C(=O)O)cc(OC)c1OC	0.66
Cc1ccc(C=C(NC(=O)c2ccccc2)C(=O)NCCc2ccccn2)o1	0.69
CCCNC(=O)N1C2=NC(C(=O)OC)=C(C(=O)OC)C3N(Cc4ccccc4)c4ccccc4[C@]23CC1CO (stereo partly specified)	0.71
CCOC(=O)CC1c2ccc(C(F)(F)F)cc2S(=O)(=O)N1c1cccc(OC)c1 (stereo unspecified)	0.67

Three structures already listed, sorted by number of heavy atoms, largest number first.
SMILES	E coli growth
CCOC(=O)C1C2COc3ccc(Br)cc3C2N2C(=O)N(c3ccc(OC)cc3)C(=O)[C@@]12C (stereo partly specified)	0.7
C=C1CC2C3C=C(C)C4=CC(=O)CC[C@]4(C)C3CC[C@]2(C)[C@@]1(OC(C)=O)C(C)=O (stereo partly specified)	0.7
COc1cc(C=C(NC(=O)c2ccccc2Cl)C(=O)O)cc(OC)c1OC	0.66

Looked up one by one from the list above, 3 records:
SMILES	E coli growth
CCCNC(=O)N1C2=NC(C(=O)OC)=C(C(=O)OC)C3N(Cc4ccccc4)c4ccccc4[C@]23CC1CO (stereo partly specified)	0.71
CC1CN(C(C)CO)C(=O)c2cccc(NC(=O)Cc3ccccc3)c2OC1CN(C)Cc1ccc2c(c1)OCO2 (stereo unspecified)	0.71
NC(=O)C1=CC(c2ccc(C(F)(F)F)cc2)CC(OCCCCO)O1 (stereo unspecified)	0.68&0.67

More records follow:
SMILES	E coli growth
COc1ccc(-n2cccc2C=C2C(=N)N3N=C(C(C)C)SC3=NC2=O)cc1	0.72
O=C(C=Cc1cccs1)N1CCC2(CC1)Oc1ccc(Cl)cc1C(=O)C21CC(c2ccccc2)=NO1 (stereo unspecified)	0.66
NC(=NOC(=O)c1ccc2ccccc2c1)c1ccccn1	0.71
CN1CC2C(c3ccc(C(F)(F)F)cc3)C3(c4cccnc4)CC2(C3)C1c1ccccc1 (stereo unspecified)	0.68
CC(C)NC(=O)N(C)CC1Oc2c(NS(=O)(=O)c3ccccc3)cccc2C(=O)N(C(C)CO)CC1C (stereo unspecified)	0.69&0.68
NC1CONC1=O (stereo unspecified)	0.7&0.71
C#CCNC(=O)C=Cc1ccc(OC)cc1	0.69
CC(=CC(=O)OCCCCCCCCC(=O)O)CC1OCC(CC2OC2C(C)C(C)O)C(O)C1O (stereo unspecified)	0.12*
CCOc1ccc(C2=CC(=O)CC(c3ccc(OC)cc3)C2)cc1 (stereo unspecified)	0.63
CCOC(=O)C1C2COc3ccccc3C2N2C(=O)C(CO)NC(=O)[C@@]12C (stereo partly specified)	0.68
CCN(CC)CCN1C(=O)C(=O)C(=C(O)c2c(C)[nH]c(C(=O)OC)c2C)C1c1ccccc1OC (stereo unspecified)	0.71
CC(C)(C)C1COC(=O)C(NC(=O)OCC2c3ccccc3-c3ccccc32)CC=CCC(CC(=O)NC(CO)Cc2ccccc2)C(=O)N1 (stereo unspecified)	0.65&0.69&0.69
COCCN1C(=O)NC(CCc2ccccc2)C(C(C)=O)C1C (stereo unspecified)	0.65
COc1ccc(NC(=O)N(C)CC2Oc3ccc(NC(=O)CCN4CCOCC4)cc3C(=O)N(C(C)CO)CC2C)cc1 (stereo unspecified)	0.7
CC(OC(=O)c1[nH]cnc1C(=O)NCc1ccc(CNC(=O)OC(C)(C)C)cc1)c1ccccc1 (stereo unspecified)	0.69
O=C1NCC(Cc2ccccc2)N(CCc2cccc(F)c2)C1=O (stereo unspecified)	0.71
CCOc1ccc(C(C)=O)cc1NC(=O)C=CC(=O)O	0.7
N#Cc1ccc(C23CC4(C2)C(CN(Cc2cccnc2)C4c2ccccc2)C3c2ccccc2)cc1 (stereo unspecified)	0.7
O=C1C=C(c2cccc(OCc3ccccc3)c2)CC(c2ccc3c(c2)OCO3)C1 (stereo unspecified)	0.73
CCC(=O)Nc1cccc(C2=NOC3(C2)CC(C(N)=O)N(C(=O)Cc2ccc([N+](=O)[O-])cc2)C3)c1 (stereo unspecified)	0.66
Cc1cc2c(c(C)c1CCOC1OC(CO)C(O)C(O)C1O)C(=O)C(C)C2O (stereo unspecified)	0.65
COC(=O)C1=C(C(=O)OC)C2Nc3ccccc3[C@@]23CC(C(=O)OC)N(C(=O)CC(C)C)C3=N1 (stereo partly specified)	0.64
COc1ccc(C2CC(=O)C=C(c3ccc(C(=O)O)cc3)C2)cc1OC (stereo unspecified)	0.71
COc1ccc(C2C=CCN(CC3CC3)CC(=O)N2Cc2ccc(F)cc2)cc1 (stereo unspecified)	0.7
C=C1C(=O)[C@@]23C(O)CC4C(C)(C)CCC(O)[C@]4(C)C2CC(O)C1C3O (stereo partly specified)	0.66

Part of the list above, set out differently:
E coli growth,SMILES
0.71,NC(=NOC(=O)c1ccc2ccccc2c1)c1ccccn1
0.68,CN1CC2C(c3ccc(C(F)(F)F)cc3)C3(c4cccnc4)CC2(C3)C1c1ccccc1 (stereo unspecified)

Additional records follow.
SMILES	E coli growth
CCOC(=O)C1C2COc3ccc(C)cc3C2N2C(=O)CN(Cc3ccccc3)C(=O)[C@@]12C (stereo partly specified)	0.67
C=CCCC(Cc1ccc(F)cc1)C(=O)OCC(Cc1c[nH]c2ccccc12)NC(=O)C(CC=C)CC(=O)NCCO (stereo unspecified)	0.65&0.63&0.68&0.71&0.69&0.72&0.72
O=C(C1=CC(c2ccccc2)CC(OCCCCO)O1)N1CCN(Cc2ccccc2)CC1 (stereo unspecified)	0.69
N#CC(=Cc1ccc(O)c(O)c1)C(=O)NCc1ccccc1	0.71
CCN1C(=O)C2C(c3ccc(Cl)cc3)N3C(=O)CN(CC4CC4)C(=O)[C@@]3(Cc3ccccc3)C2C1=O (stereo partly specified)	0.68
COC(=O)C1CC[C@@](C)(c2ccc(OC)cc2)C1(C)C (stereo partly specified)	0.69
C#CCOCCOCCOCCNc1nc(OC)nc(N2CCN(C(=O)C(CCC(=O)O)n3cc(C(N)CO)nn3)CC2)n1 (stereo unspecified)	0.7
O=C1C=C(c2ccnc3cc(Cl)ccc23)CC(c2ccc3c(c2)OCO3)C1 (stereo unspecified)	0.72
CCCCN1C(=N)N(C(CN2CCCC2CN2C(N)=NCC2Cc2ccccc2)C(C)C)CC1Cc1ccccc1 (stereo unspecified)	0.71
Cc1cccc(C2C3C(=O)N(Cc4ccccc4)C(=O)C3[C@]3(Cc4ccc(Cl)cc4)C(=O)N(c4cccc(Cl)c4)C(=O)N23)c1 (stereo partly specified)	0.65
CCOC(=O)C1CCCN(C(=O)C=Cc2cc(OC)c(OC)c(OC)c2)C1 (stereo unspecified)	0.68
CC(C)(C)OC(=O)NCCCCC(NC(=O)c1[nH]cnc1C(=O)Nc1ccc(CNC(=O)OC(C)(C)C)cc1)C(=O)OC(C)(C)C (stereo unspecified)	0.74
O=C1C=C(c2ccc3c(c2)OCO3)CC(c2ccc(Cl)cc2)C1 (stereo unspecified)	0.62
CCC(C)C1NC(=O)c2cc([N+](=O)[O-])cc(I)c2SCC(C(N)=O)NC(=O)C(CCCCN)NC1=O (stereo unspecified)	0.7
CC(C)CC(NC(=O)c1[nH]cnc1C(=O)NC(C)c1ccccc1)C(=O)OCc1ccccc1 (stereo unspecified)	0.73&0.71
Brc1ccc(CN2CCC3C=CCc4cccc(c43)C2)cc1 (stereo unspecified)	0.64
CC(C)c1nc(CN(C)C(=O)NC(C(=O)NC(Cc2ccccc2)CC(O)C(Cc2ccccc2)NC(=O)OCc2cncs2)C(C)C)cs1 (stereo unspecified)	0.72
Cc1ccc(F)c(C2C3C=CCC(C)C3C(=O)N2Cc2ccccc2)c1 (stereo unspecified)	0.66
COC(=O)C1CCC(C)C(c2ccc(C)cc2)N1C(=O)c1ccc(C=NOCCC2C=CC(OC(C)=O)C(COC(C)=O)O2)cc1 (stereo unspecified)	0.69
CC1=CSC(=C(C#N)C(=O)N2CCOCC2)N1c1ccccc1	0.69
CC(C)CC(NC(=O)c1[nH]cnc1C(=O)NC(C)C(=O)OC(C)(C)C)C(=O)OCc1ccccc1 (stereo unspecified)	0.69
CCCCCCSc1ccc(C2N[C@@](Cc3ccccc3)(C(=O)OC)C3C(=O)N(CC)C(=O)C23)cc1 (stereo partly specified)	0.75
COC(=O)C1=C(C(=O)OC)C2N(C)c3ccccc3[C@@]23CC(C(=O)OC)N(C(=O)CC(C)C)C3=N1 (stereo partly specified)	0.67
CC(=O)n1cc(C2C=C(C(=O)Nc3ccccc3)OC(OCc3ccc(CO)cc3)C2)c2ccccc21 (stereo unspecified)	0.68
Cc1cccc(NC(=O)COc2ccc(C=Cc3[nH]c(=O)[nH]c(=O)c3[N+](=O)[O-])cc2)c1	0.75

As entered above:
Result for CC(C)(C)OC(=O)NCCCCC(NC(=O)c1[nH]cnc1C(=O)Nc1ccc(CNC(=O)OC(C)(C)C)cc1)C(=O)OC(C)(C)C (stereo unspecified) in E coli growth: 0.74
Result for NC(=NOC(=O)c1ccc2ccccc2c1)c1ccccn1 in E coli growth: 0.71

Carrying on:
SMILES	E coli growth
COC(=O)c1cccc(C23CC4(C2)C(CN(Cc2cccnc2)C4c2ccccc2)C3c2ccc(C(F)(F)F)cc2)c1 (stereo unspecified)	0.74
COC(=O)C(CCSC)NC(=O)NC1CCN(Cc2ccccc2)CC1 (stereo unspecified)	0.65
O=C(CCCO)CCCCCCCCCC1NC(CO)C(O)C1O (stereo unspecified)	0.67
CC=C(C)C(=O)Nc1cccc(C2=NOC3(C2)CC(C(N)=O)N(C(=O)C(c2ccccc2)c2ccccc2)C3)c1 (stereo unspecified)	0.67
Cc1ccc(S(=O)(=O)N2C(c3cccs3)CC=C(C(=O)O)C2c2ccc(Cl)cc2)cc1 (stereo unspecified)	0.64
CCCCN1C(N)=NCC1CCCCN (stereo unspecified)	0.69
CC1CN(C(C)CO)C(=O)Cc2cc(NC(=O)CCC(F)(F)F)ccc2OC1CN(C)CC1CC1 (stereo unspecified)	0.69
COc1ccc2c(c1)C(=O)N1C3c4cc(OC)ccc4OCC3C(c3ccccc3)[C@]1(C)C(=O)N2 (stereo partly specified)	0.72
CC1CN(C(C)CO)C(=O)c2cc(NS(C)(=O)=O)ccc2OC1CN(C)C(=O)NC1CCCCC1 (stereo unspecified)	0.66
CCC(C)n1c(SCC(=O)C(C#N)=C(C)N)nc2ccccc2c1=O (stereo unspecified)	0.67
CCOC(=O)c1ccc(NC(=O)c2nc[nH]c2C(=O)NC(C)C(=O)OC(C)(C)C)cc1 (stereo unspecified)	0.69
CCCC(CN1CCCC1CN1C(N)=NCC1Cc1ccccc1)N1CC(Cc2ccccc2)N(CCCC2CCCC2)C1=N (stereo unspecified)	0.34*
CCN1C(=O)C2C(c3ccc(C)cc3)N3C(=O)N(c4cccc(F)c4)C(=O)[C@@]3(Cc3ccc(Cl)cc3)C2C1=O (stereo partly specified)	0.68
CC1CN(C(C)CO)C(=O)c2cccc(NC(=O)C3CCCCC3)c2OC1CN(C)C(=O)Nc1ccc2c(c1)OCO2 (stereo unspecified)	0.71
O=C(NC1CC1)C1=CC(c2ccccc2)CC(OCc2ccc(CO)cc2)O1 (stereo unspecified)	0.68
COc1c(O)cccc1C(O)C1CCN(CCc2ccc(F)cc2)CC1 (stereo unspecified)	0.68&0.65

Only part of the results is shown, so the mix of outcomes need not match the whole.
